# High-throughput results (PubChem BioAssay)
# Calb biofilm kill – mixtures killing C. albicans biofilm | inhibition, % at 7.6 µM | 0.02% of 120,000 active | C. albicans biofilm persisters + clotrimazole, fluorescence viability; primary screen in compound mixtures of four per well | AID 1242;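 active means inhibition above 30.3% in the primary screen of four-compound pools, then above 30% when the compound was retested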;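 further: compounds exposed to preformed 24 h biofilms for 48 h; the number belongs to the whole pool; some results filed as inactive read as strong as hits; inactives centre near 12; 0% = biofilm with clotrimazole alone and 100% = kill control; retested singly at about 60 µM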
#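 System: C. albicans CAF4-2 wild-type biofilms; Medium: RPMI/MOPS medium, pH 7.0; Reagent: Clotrimazole, 50 µg/mL; Times: biofilm formation 24 h, compound exposure 48 h, 37 °C; Detection: 2-h Alamar Blue fluorescence, 535/590 nm excitation/emission; Evaluation: percent inhibition of biofilm viability.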
# Starred values were filed as active, the others as inactive. These rows are one share of the data (hit frequency here may not be typical).
canonical_smiles | Calb biofilm kill
CCOc1cc(N2CCOCC2)c(OCC)cc1NC(=O)CN1CCCC1 | 10
N#C/C(=C\c1ccc(-c2ccc([N+](=O)[O-])cc2)o1)C(=O)Nc1nc(-c2cccs2)cs1 | 17
COC(=O)[C@@H]1CC[C@H](C)[C@@H](c2ccc(C)cc2)N1C(=O)c1ccc(/C=N/O[C@@H](C)c2cn([C@H](CO)Cc3ccccc3)nn2)cc1 | 17
Cc1cn(C)c(=O)n(C)c1=O | 9
Cn1c(-c2ccco2)n[nH]c1=S | 12
CC(C)C1Nc2c(O)cc(Cl)c([N+](=O)[O-])c2C2C=CCC21 (stereo not drawn) | 5
CC[C@H](C)NC(=O)c1ccc(Cn2c(=S)[nH]c3c([nH]c4ccc(OC)cc43)c2=O)cc1 | 2
Cc1ccc(-c2csc(NC(=O)CSc3nc(C)cs3)n2)cc1 | 13
CCOC(=O)c1c(NC(=S)Nc2ccccc2)sc(C)c1C | 7
CSc1ccccc1C(=O)C1CCCN(Cc2c(C)n(C)n(-c3ccccc3)c2=O)C1 (stereo not drawn) | 6
CC(C(=O)NCCN1C(=O)S/C(=C\c2cccnc2)C1=O)N1C(=O)c2ccccc2C1=O (stereo not drawn) | 10
Cc1ccc(-c2nc(=S)c3c(n2Cc2cccnc2)CC(C)(C)OC3)cc1 | 31
C=CCn1c(CNC(=O)c2ccco2)nnc1SCC(=O)c1ccccc1 | 18
O=C(COC(=O)CNC(=O)c1ccccc1)Nc1ccccc1Cl | 21
C=CCn1c(SCC(=O)OCC)nc(C(F)(F)F)cc1=O | 10
CCc1cc2cc(C)cc(C)c2nc1SCC(=O)Nc1cc(C)on1 | 3
COc1ccc(/C=C/C(=O)N2CCN(c3ccccn3)CC2)c2ccccc12 | -4
COCCN1C(=O)Cc2c1nc(N)c1c(N)nc(N3CCN(c4ccc(F)cc4)CC3)c(C#N)c21 | 4
COc1ccc(C)cc1S(=O)(=O)n1ccnc1C | 25
Cn1c(C23CC4CC(CC(C4)C2)C3)n[nH]c1=S | 8

# Continued.
canonical_smiles | Calb biofilm kill
Cc1ccc(NN=Nc2nc3c([nH]2)c(=O)n(C)c(=O)n3C)cc1 | 23
COC(=O)CC1C(=O)NCCN1C(=O)c1sc2ccccc2c1Cl (stereo not drawn) | 11
COc1ccc(C(=O)OCC(=O)NC(=O)NC(C)C)cc1OC | 7
COC(=O)N(NC(=O)C(O)(c1ccccc1)c1ccccc1)c1ccccc1 | 9
COC(=O)N/N=C/c1c(C)nn(-c2cccc(Cl)c2)c1Cl | 3
O=C(CN1CCCc2ccccc21)NCCc1ccc(Cl)cc1 | 17
CC(C)CNC1=C(C(=S)Nc2ccccc2)C(=O)CC(C)(C)C1 | 5
CC(=O)/C=C/c1ccc(C)o1 | 7
O=C(CN1CCCCCCC1)Nc1ccc(Cl)cc1Cl | 9
Cc1c(NC(=O)C(C)OC(=O)CCc2ccccc2)c(=O)n(-c2ccccc2)n1C (stereo not drawn) | 4
CC(=O)Nc1ccc(N=NN2CCOCC2)cc1 | 12
COc1ccc(C2=NOC(CNC(=S)N3CCOCC3)C2)cc1 (stereo not drawn) | 10
CCN(Cc1ccccc1)C(=O)COC(=O)c1cc(S(=O)(=O)Nc2c(C)n(C)n(-c3ccccc3)c2=O)ccc1C | 6
Cc1nc2ccc(NC(=S)N3CCN(c4ccccn4)CC3)cc2nc1C | 10
Cn1c(N)c(C(=O)COC(=O)c2cnc(Cl)c(Cl)c2)c(=O)n(C)c1=O | 6
CCC(=O)Nc1nc2ccc3sc(C)nc3c2s1 | -1
CCOc1cc(NC(=S)NCC2CCCO2)c(OCC)cc1NC(=O)C1CC1 (stereo not drawn) | 11
O=C1SCCC1NS(=O)(=O)c1ccccc1[N+](=O)[O-] (stereo not drawn) | 11
CCOc1ccc(CN2CCN(Cc3cn(CC)nc3C)CC2CCO)cc1 (stereo not drawn) | 28
CC(=O)N(C)N(C)c1cc(C)nc(N)n1 | 12

# Further compounds:
canonical_smiles | Calb biofilm kill
CCN(CC)C(=O)c1ccc2c3c(cccc13)C(=O)N(CCc1ccc(OC)c(OC)c1)C2=O | 12
Oc1ccccc1C=NCCN=Cc1ccccc1O | 25
CSc1nc(S(=O)(=O)c2ccccc2)c(Cl)s1 | 17
COc1ccc(C(CC(=O)N2CCOCC2)c2c(O)cc(OC)cc2OC)cc1 (stereo not drawn) | 13
Cn1nc(C(F)(F)F)c2cc(C(=O)O)sc21 | 2
C=CCn1c(SCN2C(=O)c3ccccc3C2=O)nc2ccc(Cl)cc2c1=O | 13
N#Cc1c(-c2ccc(F)cc2)cc(-c2cccnc2)nc1N | 14
O=[N+]([O-])C(C1CCS(=O)(=O)C1)C1CCS(=O)(=O)C1 (stereo not drawn) | 12
CCC(C)Nc1nnnc2c1sc1nc3c(cc12)COC(C)(C)C3 (stereo not drawn) | 23
Cc1ccc(CSc2nnc(SCC(=O)N/N=C/c3ccc(C(=O)O)cc3)s2)cc1 | 14
COc1cc(C(=O)N/N=C/c2sccc2C)cc(OC)c1OC | 10
O=C(OCC(=O)N1CCOCC1)c1ccc2[nH]c3c(c2c1)CCCC3 | 4
Cc1cccc(NC(=O)CSc2nnnn2-c2ccc3c(c2)OCCO3)n1 | 22
O=C(c1cccc(C(F)(F)F)c1)C1CCCN(Cc2cccn2-c2ncccn2)C1 (stereo not drawn) | 21
CCOc1ccccc1NC(=O)c1nc(-c2ccccc2)oc1C | 18
Cc1nn(C)c(C(=O)N2CCOCC2)c1Cl | 5
O=C(NC(=S)Nc1ccc(CN2CCOCC2)cc1)c1ccco1 | 19
CC(C)C(=O)Nc1c(O)c2ccccc2[nH]c1=O | 2
Cc1sc(NC(=O)CN2CCOCC2)c(C#N)c1C | 6
COc1cc(C(=S)N2CCOCC2)ccc1OS(=O)(=O)c1ccccc1[N+](=O)[O-] | 17

# Single entries from the list:
# `Cc1nc2ccc(NC(=S)N3CCN(c4ccccn4)CC3)cc2nc1C` in Calb biofilm kill → 10
# `O=C(COC(=O)CNC(=O)c1ccccc1)Nc1ccccc1Cl` in Calb biofilm kill → 21
# `COc1ccc(C(CC(=O)N2CCOCC2)c2c(O)cc(OC)cc2OC)cc1` (stereo not drawn) in Calb biofilm kill → 13
# `Cn1c(-c2ccco2)n[nH]c1=S` in Calb biofilm kill → 12
# `COc1cc(C(=S)N2CCOCC2)ccc1OS(=O)(=O)c1ccccc1[N+](=O)[O-]` in Calb biofilm kill → 17
# `Cc1cccc(NC(=O)CSc2nnnn2-c2ccc3c(c2)OCCO3)n1` in Calb biofilm kill → 22

# The listing continues.
canonical_smiles | Calb biofilm kill
CC(=O)Nc1nnc(SCC(=O)c2ccc(F)cc2)s1 | 10
C=CCn1c(SCC(=O)c2cc(C)n(C)c2C)nnc1-c1ccncc1 | 20
Cc1ccc(N2C(=O)c3ccccc3C2C(=O)c2ccc(C)c(C)c2O)cc1 (stereo not drawn) | -1
CCOc1ccc(C(C)=O)cc1COC(=O)c1cccnc1SC | 15
CC(C)n1cc(-c2nc(C(=O)NN)cs2)c(=O)n(Cc2ccccc2)c1=O | 21
COc1ccc(CC(=O)NNC(=O)CCC(=O)Nc2cc(C)ccc2C)cc1 | 17
Cc1ccc(NCC(=O)N/N=C/c2cccn2C)cc1 | -13
CN(C(=O)COc1ccc([N+](=O)[O-])cc1)C1CCS(=O)(=O)C1 (stereo not drawn) | 3
C/C(CC(=O)Nc1ccc(Cl)c(C(F)(F)F)c1)=N\NC(N)=S | 14
CC[C@@H]1C=C(C)C[C@H](C)C[C@H](OC)[C@H]2O[C@@](O)(C(=O)C(=O)N3CCCC[C@H]3C(=O)O[C@H](/C(C)=C/[C@@H]3CC[C@@H](O)[C@H](OC)C3)[C@H](C)[C@@H](O)CC1=O)[C@H](C)C[C@@H]2OC | 11
COc1ccc(-c2cc3nc(C)c(CCC(=O)NCc4ccc(F)cc4)c(C)n3n2)c(OC)c1 | 0
CCOC(=O)COc1ccc(Br)cc1/C=C\c1[nH]c(=O)[nH]c(=O)c1[N+](=O)[O-] | 15
O=C(CCC(=O)Nc1ccccc1)NNC(=O)c1ccccc1Cl | 16
COc1ccc(Nc2nc(N)nc(CSc3nc(C)cc(C)n3)n2)cc1 | 14
Cc1onc(-c2ccccc2Cl)c1C(=O)NCc1nc(-c2ccc(C(F)(F)F)cc2)no1 | 2
CCc1nc(NCc2ccccc2)c(C#N)c2c1CCCC2 | 19
CCOc1ccc(-n2c(C)nc3cc(C(=O)NCc4ccc5c(c4)OCO5)ccc32)cc1 | 18
CCOC(=O)Cn1nc(C)n(-c2ccc(Cl)cc2)c1=O | -1
Cc1cccc2c1CC(C)(C)N/C2=C\C(N)=O | 20
Clc1cc(Cl)cc(C2=NCCC(c3ccccc3)O2)c1 (stereo not drawn) | 11

# Next section (7 carried over from the part before).
canonical_smiles | Calb biofilm kill
COc1ccc(Nc2nc(N)nc(CSc3nc(C)cc(C)n3)n2)cc1 | 14
Cc1onc(-c2ccccc2Cl)c1C(=O)NCc1nc(-c2ccc(C(F)(F)F)cc2)no1 | 2
CCc1nc(NCc2ccccc2)c(C#N)c2c1CCCC2 | 19
CCOc1ccc(-n2c(C)nc3cc(C(=O)NCc4ccc5c(c4)OCO5)ccc32)cc1 | 18
CCOC(=O)Cn1nc(C)n(-c2ccc(Cl)cc2)c1=O | -1
Cc1cccc2c1CC(C)(C)N/C2=C\C(N)=O | 20
Clc1cc(Cl)cc(C2=NCCC(c3ccccc3)O2)c1 (stereo not drawn) | 11
COCCNC(=O)C(NC(=O)C1CCCCC1)C(C)C (stereo not drawn) | 13
Cc1ccc(NC(=O)COC(=O)CNC(=O)c2ccc3ccccc3c2)c([N+](=O)[O-])c1 | 11
CCOc1ccc(NC(=O)CCC(=O)N/N=C/c2ccc([N+](=O)[O-])s2)cc1 | -1
Cc1ccc(-c2nc3ncccn3c2Nc2ccccc2C)o1 | 11
O=C(Nc1ccc(N2CCOCC2)c([N+](=O)[O-])c1)c1ccco1 | 27
Cc1cccc(NC(=O)CSc2nc3c([nH]c4ccccc43)c(=O)n2C)c1 | 16
CCOc1cc(NS(=O)(=O)c2ccc(OC)cc2)c(OCC)cc1NC(=O)c1ccco1 | 3
COc1cc([N+](=O)[O-])ccc1NC(=O)C[n+]1cccc(C(C)=O)c1 | 9
CCc1ccc(-c2cc(C(=O)NCCCn3ccnc3)c3ccccc3n2)s1 | 13
CCCCOc1ccc(C(=O)N/C(=C/C=C/c2ccccc2)C(=O)NC)cc1 | 9
O=C(O)C1CCC(NSc2ccccc2[N+](=O)[O-])CC1 (stereo not drawn) | 21
COC(=O)C1=C(C)N(Cc2ccco2)C(=O)N[C@@H]1c1cccc(C(F)(F)F)c1 | 9
C=CCc1cccc([C@@H]2[C@@H](C)CC[C@H]3C(=O)N4[C@@H](c5cc(OC)c(OC)c(OC)c5)c5[nH]c6ccccc6c5C[C@H]4C(=O)N23)c1 | -1
O=C(Nc1ccc(F)c(Cl)c1)Nc1csc2ccccc12 | 25
CCOc1cc(/C=N\NC(=O)Cn2nnc3ccccc32)ccc1O | -4
Cc1ccc2c(c1C)NC(=O)CC(c1ccccc1O)=N2 | 22
COc1ccc(CN2CN(C3CCCC3)CSC2=S)cc1 | 20
O=[N+]([O-])c1cc([N+](=O)[O-])c2c(=Nc3ccccc3)n(-c3ccccc3)n(O)c2c1 | 10
Cc1cc2c(=O)[nH]c(Cc3ccccc3)nc2s1 | -2
O=[N+]([O-])c1ccc(-n2nnnc2CN2CCOCC2)cc1 | 16

# Reformatted as labelled records: entries from further up.
molecule: Cc1nc2ccc(NC(=S)N3CCN(c4ccccn4)CC3)cc2nc1C
  Calb biofilm kill: 10
molecule: Cc1onc(-c2ccccc2Cl)c1C(=O)NCc1nc(-c2ccc(C(F)(F)F)cc2)no1
  Calb biofilm kill: 2

# Additional entries follow.
canonical_smiles | Calb biofilm kill
CCSc1ccc2nnc(-c3cccs3)n2n1 | 9
O=C(NCc1ccccn1)C1CCN(Cc2cccc(OCc3ccccc3)c2)CC1 | 18
CCC(OCC(O)CN1CCN(CCN2C(=O)c3cccc4cccc(c34)C2=O)CC1)c1ccccc1 (stereo not drawn) | 11
Cc1ncc(C[n+]2csc(C)c2C)c(N)n1 | 20
COc1ccccc1N(C)S(=O)(=O)c1ccc(C(=O)OCC(=O)N(C(C)C)C(C)C)cc1 | -3
Cn1cnnc1SCC(=O)NNC(=O)COc1ccc(Br)cc1 | 5
CN(C(=O)CC1C(=O)NCCN1Cc1ccc(F)cc1)C1CCOCC1 (stereo not drawn) | 3
O=C(COc1ccccc1)NNC(=O)c1cc2ccccc2o1 | -8
Cn1nc(-c2ccccc2)c(CO)c1Sc1ccccc1 | 12
CC1=NN(/C(=N\c2nnc(C)s2)Nc2ccccc2)[C@H](c2cccc3ccccc23)S1 | -12
O=[N+]([O-])c1cccc(-c2ccn[nH]2)c1 | 14
COc1ccc(C(=O)/C=C2\Sc3ccccc3N2C)cc1 | 20
COc1ccc(CC(=O)OC2CCCN(C)C2)cc1 (stereo not drawn) | 27
O=C(COc1ccccc1)NC1CCCc2ccccc21 (stereo not drawn) | 9
O=C(N/N=C/c1ccc(-c2ccccc2)o1)c1ccccc1O | 14
COc1ccc(C(=S)N2CCCCCC2)cc1 | 6
CN(C)/C=C/C(=O)c1cc(N2CCOCC2)ccc1[N+](=O)[O-] | 14
Cc1ccc(Cn2ccc(C3CC3)n2)cc1 | 15
COC(=O)Cc1[nH]nc2c1C(c1cc(OC)c(OC)c(OC)c1)C(C#N)=C(N)O2 (stereo not drawn) | 20
O=C(CSc1nnc2ccc(-c3ccccn3)nn12)NCC1CCCO1 (stereo not drawn) | 11

# Further entries.
canonical_smiles | Calb biofilm kill
Cc1ccc(OCC(=O)Nc2ccc(N3CCN(C(=O)c4ccco4)CC3)cc2)cc1C | -8
COc1cc([N+](=O)[O-])ccc1NC(=O)Cc1ccccc1 | 20
CSc1n[nH]c(=O)n1-c1ccc(Cl)cc1 | 23
O=C(NNc1ccccc1)C(=O)N1CCCCC1 | 17
NS(=O)(=O)c1ccc(CCNC(=O)c2cc(-c3ccc(Br)cc3)nc3ccccc23)cc1 | -1
CN(C)CCOC(=O)/C(=C/c1cn(C)c2ccccc12)NC(=O)c1ccccc1 | 4
